Source: PubChem
MrgX1 antag – human MrgX1 receptor antagonism, primary screen; MRGX1-HEK293 calcium flux, Fluo-4, BAM8-22 antagonism; hits give low values; B-score at 10 µM; hit rate 1.3% among 310,000;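 active = calcium-response B-score plate-corrected more than 3 library SD below zero, starting fluorescence within 5 deviations, no agonist response on first addition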;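 note: peak minus trough fluorescence over baseline after final BAM8-22 challenge near maximal dose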
TRPC6 inhibitor – mouse TRPC6 channel inhibition; Q61143; HEK293-TRPC6, membrane potential dye, ACh-evoked depolarization; hits give low values; B-score at 10 µM; hit rate 1.1% among 310,000; AID 2553;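 active = B-score under library mean minus 3 SD, initial fluorescence not abnormally high, positive integrated signal ratio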;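 note: B-score derived from integrated fluorescence ratio over the kinetic read; more negative B-score means stronger inhibition of depolarization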
Target sequence (Q61143 whole entry, looked up): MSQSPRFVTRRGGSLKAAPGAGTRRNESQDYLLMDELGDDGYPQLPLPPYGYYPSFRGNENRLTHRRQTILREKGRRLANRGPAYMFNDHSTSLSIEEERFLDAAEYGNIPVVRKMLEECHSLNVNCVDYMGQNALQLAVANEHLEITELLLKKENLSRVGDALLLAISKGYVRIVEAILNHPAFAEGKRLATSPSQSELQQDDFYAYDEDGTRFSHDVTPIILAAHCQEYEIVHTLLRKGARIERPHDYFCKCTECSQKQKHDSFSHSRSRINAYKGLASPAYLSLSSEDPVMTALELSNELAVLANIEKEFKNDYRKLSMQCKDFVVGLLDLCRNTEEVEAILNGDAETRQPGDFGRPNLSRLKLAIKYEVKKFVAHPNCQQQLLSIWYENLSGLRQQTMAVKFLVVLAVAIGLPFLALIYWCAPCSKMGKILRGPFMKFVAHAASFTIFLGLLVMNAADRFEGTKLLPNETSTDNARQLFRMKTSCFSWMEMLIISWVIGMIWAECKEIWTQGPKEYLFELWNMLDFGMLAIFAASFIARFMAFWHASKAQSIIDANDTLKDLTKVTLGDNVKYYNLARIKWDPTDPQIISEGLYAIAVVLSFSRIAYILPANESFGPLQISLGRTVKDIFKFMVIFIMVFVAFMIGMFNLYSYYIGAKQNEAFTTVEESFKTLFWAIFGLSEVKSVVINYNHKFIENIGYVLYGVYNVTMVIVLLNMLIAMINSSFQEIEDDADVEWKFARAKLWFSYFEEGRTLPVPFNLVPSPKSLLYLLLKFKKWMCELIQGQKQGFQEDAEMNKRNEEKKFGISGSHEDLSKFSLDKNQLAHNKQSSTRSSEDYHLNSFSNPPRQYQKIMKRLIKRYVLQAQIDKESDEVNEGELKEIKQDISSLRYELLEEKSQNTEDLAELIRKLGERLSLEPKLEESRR
MrgX1 PAM – allosterically activates human MrgX1 receptor signaling; MrgX1-HEK293, Fluo-4 calcium flux, FDSS; hits give high values; B-score at 10 µM; hit rate 0.63% among 310,000; AID 588675;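 active = plate-corrected calcium response at least 3 library SD above typical, normal starting fluorescence, not activating the receptor alone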;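 note: compound read alongside a low EC10 to EC30 dose of BAM8-22 agonist; peak minus trough fluorescence over baseline measured at the second addition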
TRPC4 potent – TRPC4 (mouse) allosteric potentiation; hit rate 0.42% among 310,000; B-score at 10 µM; Q9QUQ5; HEK293 TRPC4beta/mu-opioid, DAMGO EC20, Fluo-4 Ca2+ flux; hits give high values;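 active = B-score of calcium response area above 5 SD of library B-scores, with initial fluorescence ratio within 5 SD of library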;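 note: B-score of integrated fluorescence ratio over time as area under calcium response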
TRPC6 activator – activators of mouse TRPC6 channel | Q61143 | HEK293-TRPC6 membrane potential dye fluorescence; hits give high values | B-score at 10 µM | hit rate 0.13% among 310,000 | AID 2550;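 active = B-score of the integrated fluorescence ratio above library mean plus 3 SD, and starting fluorescence ratio within library mean plus 5 SD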;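 note: higher score means more depolarization so channel activation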
TRPC4 agonist – activators of mouse TRPC4 channel; hit rate 0.49% among 310,000; Q9QUQ5; B-score at 10 µM; AID 2237; HEK293 TRPC4beta/mu-opioid, Fluo4 calcium fluorescence; hits give high values;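 active = B-score above 5 SD of library B-scores, and initial fluorescence ratio not above library mean plus 5 SD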;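 note: positive B-score marks a calcium rise read as TRPC4 activation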
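system = HEK293 cells stably co-expressing mouse TRPC4beta and mu-opioid receptor | schedule = Fluo4 dye loading 45 min at room temperature, 110 s recording | measure = B-scored integrated calcium fluorescence ratio | signal = Fluo4 calcium-sensitive dye fluorescence, kinetic, 1 Hz baseline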
PolyA inhibitor – blocks polyadenylation in yeast reporter cells; S. cerevisiae SKY197-pL101 polyadenylation reporter, beta-gal luminescence; efflux-impaired pdr1/pdr3 knockout yeast; score 100 = 6 SD above DMSO; hit rate 0.02% among 300,000; calls only at 12 µM;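 active = lowest replicate activity score at least 50, where 100 means six control SD above control mean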;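 note: yeast exposed to compound for 9 h at 30 °C; higher score means more reporter readthrough which indicates perturbed polyadenylation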
MrgX1 ag – agonists of human MrgX1 receptor. AID 588627. hit rate 0.44% among 310,000. B-score at 10 µM. MrgX1-HEK293 cells, Fluo-4 calcium fluorescence, agonist mode; hits give high values. Q96LB2;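 active = calcium response B-score plate-corrected fluorescence ratio at least 3 library SD, with starting fluorescence B-score inside 5 SD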
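Test system: Stable human MrgX1 HEK293 cell line | Schedule: Overnight plating before 1 h dye loading | Read-out basis: Baseline-normalised fluorescence change ratio, B-scored | Detection: Kinetic calcium dye fluorescence, Fluo-4 NW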
AI-2 QS modul – modulates the Vibrio harveyi AI-2 quorum sensing system; Vibrio harveyi JMH597 AI-2 luminescence/OD600 ratio, 9 h; hits give low values; strain lacks LuxN and CqsS sensors; 0 = neutral-control median; activity change, % at 7.5 µM; hit rate 0.4% among 300,000; AID 2094; in the data active = activity change below about -75%, passing the limit was not always enough;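 note: luminescence divided by OD600 gain over 9 h not by final OD600 alone; inactives centre near 13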
TRPC4 block – TRPC4 (mouse) channel inhibition. Q9QUQ5. HEK293 TRPC4beta/mu-opioid, DAMGO-evoked Fluo4 calcium flux; hits give low values. B-score at 10 µM. hit rate 0.39% among 300,000;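 active = B-score over 3 SD under the library average, no early fluorescence shift, positive overall ratio signal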
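Assay system: HEK293 cells with stable TRPC4beta plus mu-opioid receptor expression; Probe or stimulus: DAMGO in two steps, submaximal then maximal; Dosing: single-point compound dosing; Measured by: Fluo4 calcium-dye fluorescence, kinetic read; Read-out basis: B score from integrated Fluo4 fluorescence ratio.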
* = called active by the depositor; i = inactive; / = no result given; & = joins results of further samples. Not all compounds are listed. The share of hits here may be higher or lower than overall.

Value order: MrgX1 antag | TRPC6 inhibitor | MrgX1 PAM | TRPC4 potent | TRPC6 activator | TRPC4 agonist | PolyA inhibitor | MrgX1 ag | AI-2 QS modul | TRPC4 block
Cc1cn(C2C=CC(CO)O2)c(=O)[nH]c1=O (stereo unspecified)
    i | i | i | i | i | i | i | i | 21 | i
C=C(C)CC1N(c2cccc(OC)c2)C(=O)[C@@H]2C(C(=O)O)[C@H]3C=C[C@@]12O3 (stereo partly specified)
    i | i | i | i | i | i | i | i | 15 | i
CN(C)c1ccc(C(c2ccc(N(C)C)cc2)c2ccc([N+](=O)[O-])cc2)cc1
    i | i | i | i | i | i | i | i | / | i
COCc1[nH]nc2c1C(c1ccccc1OC)C(C#N)=C(N)O2 (stereo unspecified)
    i | i | i | i | i | i | i | i | 17 | i
Cc1ccc(NC(=O)c2ccc(CN3CCN(C)CC3)cc2)cc1Nc1nccc(-c2cccnc2)n1
    i | i | i | i | i | i | i | i | 9 | i
NS(=O)(=O)c1cc(C(=O)O)c(NCc2ccco2)cc1Cl
    i | i | i | i | i | i | i | i | 16 | i
CCOC(=O)c1ccccc1OCc1cc(/C=N/n2cncn2)ccc1OC
    i | i | i | i | i | i | i | i | 35 | i
CC(C)OC(=O)CCNc1n[nH]c(=O)[nH]c1=O
    i | i | i | i | i | i | i | i | 13 | i
NCCNC(=O)c1ncsc1-c1cccc(F)c1
    i | i | i | i | i | i | i | i | 3 | i
Cc1cc(C)n(Cc2ccc(C(=O)NCCC3=CCCCC3)o2)n1
    i | i | i | i | i | i | i | i | 26 | i
Cc1ccc2cc(CN(C(=O)c3ccco3)c3ccccc3)c(=O)[nH]c2c1
    i | i | i | i | i | i | i | i | 3 | i
Cc1cc(=O)oc(C)c1C(=O)n1nc(C)c2c1C[C@@H]1[C@H]2C1(C)C
    i | i | i | i | i | i | i | i | 11 | i
CCNC(=O)[C@H]1O[C@@H](n2cnc3c(N)nc(NCCc4ccc(CCC(=O)O)cc4)nc32)[C@H](O)[C@@H]1O
    i | i | i | i | i | i | i | i | 3 | i
CCCCCc1ccc(-c2ccc(=O)[nH]n2)cc1
    i | i | i | i | i | i | i | i | -77* | i
Cc1cccc(-c2nc(C#N)c(NC3CCCCC3)o2)c1
    i | i | i | i | i | i | i | i | 24 | i
O=C(NCC(F)(F)F)Nc1nnc(C(F)(F)F)s1
    i | i | i | i | i | i | i | i | -5 | i
c1cncc(-c2nnc3sc(-c4ccco4)nn23)c1
    i | i | i | i | i | i | i | i | 59 | i
CC(=O)Nc1ccc(Cc2ccc3[nH]c(=O)cc(C)c3c2)cc1
    i | i | i | i | i | i | i | i | 30 | i
OCc1ccc(-c2nn(Cc3ccccc3)c3ccccc23)o1
    i | i | i | i | i | i | i | i | -12 | i
C=CCOc1nc2c(c(=O)n(Cc3ccc(Cl)c(Cl)c3)c(=O)n2C)n1C
    i | i | i | i | i | i | i | i | 28 | i
O=c1[nH]cc(F)c(=O)[nH]1
    i | i | i | i | i | i | i | i | -88* | i
N=c1c[n+](N2CCOCC2)[n-]o1
    i | i | i | i | i | i | i | i | 7&17 | i
CN(C)c1nc(N)c(C(=O)N=C(N)N)nc1Cl
    i | -7.3* | i | i | i | i | i | 35* | 33 | i
CC1CN(C2CCN(S(=O)(=O)c3ccccc3)CC2)CC(C)O1 (stereo unspecified)
    i | i | i | i | i | i | i | i | 5 | i
CC(C)C1=C2OC(N)=C(C#N)C(C#N)=C2C(C)CC1 (stereo unspecified)
    i | i | i | i | i | i | i | i | 25 | i
CCOC(=O)CNC(=O)CCCCCC(=O)NCC(=O)OCC
    i | i | i | i | i | i | i | i | 11 | i
CC(=O)NC(CC(=O)O)C(=O)O (stereo unspecified)
    i | i | i | i | i | i | i | i | 19 | i
OC(c1cc(-c2ccc(Cl)cc2)nc2ccccc12)C1CCCCN1 (stereo unspecified)
    i | i | i | i | i | i | i | i | 39 | i
CC(C(=O)O)c1ccc(-c2ccccc2)c(F)c1 (stereo unspecified)
    i | i | i | i | i | i | i | i | 29 | i
N#Cc1c(N)nc(SCc2ccccn2)c(C#N)c1-c1cccs1
    i | i | i | i | i | i | i | i | 18 | i
N[C@H]1CONC1=O
    i | i | i | i | i | i | i | i | 24 | i
Cc1onc(-c2c(Cl)cccc2Cl)c1C(=O)NC1C(=O)N2C1SC(C)(C)C2C(=O)O (stereo unspecified)
    i | i | i | i | i | i | i | i | 22 | i
c1ccc(Cc2nn[nH]n2)cc1
    i | i | i | i | i | i | i | i | 17 | i
Nc1ccc(S(=O)(=O)Nc2ccccn2)cc1
    i | i | i | i | i | i | i | i | 24 | i
Clc1ccc(-n2ncc3c(NCc4ccccn4)ncnc32)cc1
    i | i | i | i | i | i | i | i | 9 | i
C/C(=N\O)c1ccc2[nH]ccc2c1
    i | i | i | i | i | i | i | i | 7 | i
N[C@@H]1CONC1=O
    i | i | i | i | i | i | i | i | 31 | i
CN(C)CC[C@@H](c1ccc(Br)cc1)c1ccccn1
    i | i | i | i | i | i | i | i | 4 | i
c1ccc2c(c1)CCCC2C1=NCCN1 (stereo unspecified)
    i | i | i | i | i | i | i | i | 18 | i
CC(C)(C#N)C(C)(C)c1nn[nH]n1
    i | i | i | i | i | i | i | i | 2 | i
O=C1NC(c2cccs2)Nc2ccccc21 (stereo unspecified)
    i | i | i | i | i | i | i | i | 14 | i
Cc1nc(SCC(=O)c2ccccc2)c(C#N)c(-c2ccco2)c1C(=O)NCc1ccco1
    i | i | i | i | 14* | i | i | i | 16 | i
O=C(Nc1ncn[nH]1)c1c(Cl)ccc(Cl)c1Cl
    i | i | i | i | i | i | i | i | -19 | i
C[C@@H](O)[C@H]1C(=O)N2C(C(=O)O)=C(S[C@@H]3CN[C@H](C(=O)N(C)C)C3)[C@H](C)[C@H]12
    i | i | i | i | i | i | i | i | 18 | i
Oc1oc(-c2ccco2)nc1C=Nc1cccc(Cl)c1
    i | i | i | i | i | i | i | i | 37 | i
C=CCNc1nc(N2CCOCC2)c(C#N)c2c1CN(C)CC2
    i | i | i | i | i | i | i | i | 13 | i
Oc1ccc2c(c1)C1CCCC1(N1CCOCC1)O2 (stereo unspecified)
    i | i | i | i | i | i | i | i | 0 | i
COc1ccc(CCNc2nc3c(c(=O)n(C)c(=O)n3C)n2C)cc1OC
    i | i | i | i | i | i | i | i | 28 | i
N#Cc1c(N)sc(=S)c2c1CCCCC2
    i | i | i | i | i | i | i | i | 8 | i
Cc1nnc(SCc2nc3ccccc3[nH]2)s1
    i | i | i | i | i | i | i | i | 14 | i

Going on with the list:
Value order: MrgX1 antag | TRPC6 inhibitor | MrgX1 PAM | TRPC4 potent | TRPC6 activator | TRPC4 agonist | PolyA inhibitor | MrgX1 ag | AI-2 QS modul | TRPC4 block
O=C(O)C1CSCN1S(=O)(=O)c1cccc2nsnc12 (stereo unspecified)
    i | i | i | i | i | i | i | i | 61 | i
Cn1c(N2CCN(c3ccccn3)CC2)nc2c1c(=O)n(Cc1ccc(Cl)cc1)c(=O)n2C
    i | / | i | / | / | / | i | i | 32 | /
OC(CCN1CCCCC1)(c1ccccc1)c1ccccc1
    -7.1* | -7.1* | i | i | i | i | i | i | 15 | i
COc1ccc2cc(CCC(C)=O)ccc2c1
    i | i | i | i | i | i | i | i | 15 | i
Fc1cc(F)c(F)c(SCCc2ccncc2)c1F
    i | i | i | i | i | i | i | i | 10 | i
Cc1nnc(SCC(=O)N2CCC(C(N)=O)CC2)s1
    i | i | i | i | i | i | i | i | 3 | i
CCOc1c(C)cc2[nH]c(CCC(=O)O)nc2c1C
    i | i | i | i | i | i | i | i | -3 | i
Nc1nc2ccc(OC(F)(F)F)cc2s1
    i | i | i | i | i | i | i | i | 14&3 | i
CC12CCC(C1)C(C)(C)C2OC(=O)c1ccccc1C(=O)O (stereo unspecified)
    i | i | i | i | i | i | i | i | 14 | i
CN(CC(O)COc1ccc(OCC(O)CN(C)C2CCCCC2)cc1)C1CCCCC1 (stereo unspecified)
    i | i | i | i | i | i | i | i | 33 | i
COc1ccc(CC(=O)Nc2cccc(-c3nnc(-c4ccco4)o3)c2)cc1
    i | i | i | i | i | i | i | i | 6 | i
O=C(O)/C=C/c1ccc(O)c(O)c1
    i | i | i | i | i | i | i | i | 21 | i
NC(=O)c1ncn([C@@H]2O[C@H](CO)[C@@H](O)[C@H]2O)n1
    i | i | i | i | i | i | i | i | -24 | i
CN(C)S(=O)(=O)Nc1ccc(NS(=O)(=O)N(C)C)c(S(=O)(=O)c2ccccc2)c1
    i | i | i | i | i | i | i | i | 23 | i
O=C1C[C@@H](c2ccc(O)cc2)Oc2cc(O)cc(O)c21
    i | i | i | i | i | i | i | i | 1 | i
COc1ccc(Nc2cc(C)nc(-n3nc(C)cc3C)n2)cc1
    i | i | i | i | i | i | i | i | 21 | i
Nc1ncn([C@@H]2O[C@H](CO)[C@@H](O)[C@H]2O)c(=O)n1
    i | i | i | i | i | i | i | i | -87* | i
CCN(CC)c1ncc(C)c(=O)[nH]1
    i | i | i | i | i | i | i | i | 0 | i
Cn1ccnc1C(O)c1ccc(OCc2ccccc2)cc1 (stereo unspecified)
    i | i | i | i | i | i | i | i | 0 | i
Cc1nc(-c2c(-c3ccc(O)cc3O)noc2C(F)(F)F)cs1
    i | i | i | i | i | i | i | i | 14 | i
C=CCOC(=O)C1=C(C)OC(N)=C(C#N)C1c1ccoc1 (stereo unspecified)
    i | i | i | i | i | i | i | i | 8 | i
CCCc1cc(C(=O)Cc2ccc(F)cc2)c(O)cc1O
    i | i | i | i | i | i | i | i | 27 | i
Cc1ccc(/C(=C\CN2CCCC2)c2ccccn2)cc1
    i | i | i | i | i | i | i | i | 12 | i
CCOc1cccc(-c2nnc3sc(-c4ccco4)nn23)c1
    i | i | i | i | i | i | i | i | 1 | i
CCOc1ccc(CCNC(=O)C(O)c2ccccc2)cc1 (stereo unspecified)
    i | i | i | i | i | i | i | i | 31 | i

3 structures already listed, ordered by count of non-hydrogen atoms, ascending:
Value order: MrgX1 antag | TRPC6 inhibitor | MrgX1 PAM | TRPC4 potent | TRPC6 activator | TRPC4 agonist | PolyA inhibitor | MrgX1 ag | AI-2 QS modul | TRPC4 block
CCCc1cc(C(=O)Cc2ccc(F)cc2)c(O)cc1O
    i | i | i | i | i | i | i | i | 27 | i
CCOc1cccc(-c2nnc3sc(-c4ccco4)nn23)c1
    i | i | i | i | i | i | i | i | 1 | i
Cc1nc(-c2c(-c3ccc(O)cc3O)noc2C(F)(F)F)cs1
    i | i | i | i | i | i | i | i | 14 | i
